Source: PubChem BioAssay (Broad Institute)
Env fusion inh: inhibitors of HIV Env-mediated cell fusion. HeLa-JRFL Env/CEM21 cell fusion, luciferase. inhibition, % at 12.3 µM. 360,000 compounds, 1.1% hits;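 active = mean replicate inhibition score of at least 50 and every replicate individually at or above 50; inconclusive = only one of the two criteria met; inactive = mean below 50 and not all replicates reaching 50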;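 note: 0% = plate neutral controls and 100% = maraviroc near 300 nM; one replicate is shown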
An asterisk follows results filed as active; ? = inconclusive; [ ] = remark or other dose.

| Env fusion inh | canonical_smiles |
| --- | --- |
| 10.0[16.7 µM] | CC(C)NC(=O)Nc1ccc2c(c1)C(=O)N([C@@H](C)CO)C[C@H](C)[C@H](CN(C)C(=O)CCCN(C)C)OCCCC[C@H](C)O2 |
| 17.7[16.7 µM] | COc1ccc(CN(C)C[C@@H]2Oc3ccc(NC(=O)Nc4ccc(C(F)(F)F)cc4)cc3CC(=O)N([C@H](C)CO)C[C@@H]2C)cc1 |
| -9.7[16.7 µM] | O=C(C[C@H]1C[C@H]2c3cc(NC(=O)Cc4ccncc4)ccc3O[C@H]2[C@@H](CO)O1)NCCN1CCCCC1 |
| -6.4[16.7 µM] | COc1ccc(C[C@@H]2CCc3cnnn3COC[C@H](Cc3ccccc3)NC2=O)cc1 |
| -5.2 | COC(=O)[C@H](Cc1ccccc1)N1CC(N2CCCC2)CS1(=O)=O (stereo partly specified) |
| ? | COC(=O)[C@]12C[C@H](CC(=O)NCc3cccc(C(F)(F)F)c3)C(=O)N(Cc3ccccc3)C1=C[C@H](C1CCCC1)O[C@@H]2C |
| -0.7[16.7 µM] | CNC[C@@H]1Oc2ncc(C#CC3CCCCC3)cc2C(=O)N([C@@H](C)CO)C[C@@H]1C |
| 58.3*[16.7 µM] | C[C@H](CO)N1C[C@H](C)[C@H](CN(C)C(=O)Cc2ccccc2)OCc2ccccc2-c2c(n(C)c3ccccc23)C1=O |
| 4.9[16.7 µM] | C[C@H]1CN([C@@H](C)CO)C(=O)c2cc(NS(C)(=O)=O)ccc2O[C@@H]1CN(C)Cc1ccc2c(c1)OCO2 |
| 21.5[16.7 µM] | CN1c2ccc(-c3cccc(C#N)c3)cc2[C@@H]2[C@@H](CCN2C(=O)NC2CCCC2)[C@@H]1CO |
| 42.9[16.7 µM] | C[C@H]1CN([C@@H](C)CO)C(=O)c2c(c3ccccc3n2C)-c2ccccc2CO[C@H]1CN(C)C(=O)NC1CCCCC1 |
| 13.4[16.7 µM] | C[C@@H]1CN([C@H](C)CO)C(=O)c2cc(NC(=O)Cn3cnnn3)ccc2O[C@@H]1CN(C)S(=O)(=O)c1ccc(Cl)cc1 |
| 3.7[16.7 µM] | O=C(Nc1ccc2c(c1)[C@@H]1C[C@H](CC(=O)N3CCCCC3)O[C@@H](CO)[C@@H]1O2)C1CCOCC1 |
| 20.0 | CCCc1ccc(-c2cc(NC(=O)Cc3c[nH]c4ccccc34)ccc2Nc2cccnc2)cc1 |
| 9.9[16.7 µM] | C[C@H](CO)N1C[C@H](C)[C@H](CN(C)C(=O)Nc2cccc3ccccc23)OCCCC[C@H](C)Oc2ccc(N(C)C)cc2C1=O |
| -17.1[16.7 µM] | CO[C@@H]1CN(C)C(=O)c2cc(NC(C)=O)ccc2OC[C@H](C)N(CC2CCCCC2)C[C@H]1C |
| 3.5[16.7 µM] | C[C@H]1CN([C@@H](C)CO)C(=O)c2cc(NC(=O)CCN3CCOCC3)ccc2O[C@H]1CN(C)Cc1ccncc1 |
| -8.0[16.7 µM] | CCCN(C)C[C@H]1Oc2cc(C#Cc3cccc(OC)c3)ccc2S(=O)(=O)N([C@H](C)CO)C[C@H]1C |
| 12.0[16.7 µM] | O=C(C[C@@H]1C[C@H]2c3cc(NC(=O)c4ccc5c(c4)OCO5)ccc3O[C@H]2[C@@H](CO)O1)NCc1ccccn1 |
| -9.8[16.7 µM] | C[C@@H]1CN([C@H](C)CO)S(=O)(=O)c2ccc(-c3cccnc3)cc2O[C@@H]1CN(C)CC1CCOCC1 |
| -2.1[16.7 µM] | C[C@H](CO)N1C[C@H](C)[C@@H](CN(C)S(C)(=O)=O)OCCCC[C@H](C)Oc2ccc(N(C)C)cc2C1=O |
| 7.6[16.7 µM] | COC(=O)C[C@H]1CC[C@@H]2[C@H](COc3ccc(NC(=O)Cc4cccs4)cc3C(=O)N2C)O1 |
| 39.7[16.7 µM] | C[C@@H]1CN([C@@H](C)CO)C(=O)c2cc(NC(=O)Nc3ccccc3)ccc2O[C@@H](C)CCCCO[C@H]1CN(C)Cc1ccc(Cl)c(Cl)c1 |
| -5.1[16.7 µM] | COc1ccc(C(=O)Nc2ccc3c(c2)C(=O)N(C)C[C@@H](OC)[C@H](C)CN(C)[C@@H](C)CO3)cc1 |
| ? | COc1cc2c(c(OC)c1OC)[C@@]1(c3ccccc3)CCCCC[C@H]1[C@@H]2NC(=O)C(F)(F)F |
| 97.8*[16.7 µM] | CN1c2ccc(C3=CCCCC3)cc2[C@H]2[C@H](CCN2C(=O)C2CC2)[C@@H]1CO |
| 3.5[16.7 µM] | COc1ccc(CN(C)C[C@@H]2Oc3ccc(NC(=O)NC(C)C)cc3C(=O)N([C@H](C)CO)C[C@@H]2C)cc1 |
| -4.2[16.7 µM] | C[C@@H]1CN([C@H](C)CO)C(=O)c2cc(-c3ccc(C#N)cc3)cnc2O[C@H]1CN(C)CC1CCCCC1 |
| 7.6[16.7 µM] | CC(C)NC(=O)Nc1ccc2c(c1)C(=O)N([C@H](C)CO)C[C@@H](C)[C@@H](CN(C)C(=O)NC1CCCCC1)OCCCC[C@@H](C)O2 |
| -12.9[16.7 µM] | O=C(NCc1ccncn1)[C@H]1[C@H](CO)[C@H]2Cn3c(ccc(-c4ccc(F)cc4)c3=O)[C@H]2N1CC1CC1 |

| Env fusion inh | canonical_smiles |
| --- | --- |
| -8.2[16.7 µM] | COc1ccc2c3c(n(C)c2c1)[C@H](CO)N(C(=O)CN1CCOCC1)CC31CN(Cc2ccncc2)C1 |
| -7.2[16.7 µM] | O=C([C@@H]1[C@@H](CO)[C@@H]2Cn3c(ccc(-c4ccccc4)c3=O)[C@H]1N2)N1CCCCC1 |
| 3.5[16.7 µM] | CC(C)(C)[S@@](=O)N1Cc2cc(C(=O)NCc3ccccc3F)nc(-c3cccc(-c4ccncc4)c3)c2[C@H]1CCO |
| 5.0[16.7 µM] | CO[C@H]1CN(C)C(=O)c2cc(NC(=O)C3CCOCC3)ccc2OC[C@@H](C)N(CC2CC2)C[C@@H]1C |
| -14.0[16.7 µM] | CCCC(=O)Nc1ccc2c(c1)C(=O)N(C)[C@@H]1CC[C@H](CC(=O)NCc3cccc(F)c3)O[C@H]1CO2 |
| -7.1[16.7 µM] | O=C(C[C@H]1C[C@@H]2c3cc(NC(=O)CC4CC4)ccc3O[C@@H]2[C@H](CO)O1)NCC1CC1 |
| 6.7[16.7 µM] | O=C(C[C@H]1CC[C@@H]2[C@H](COC[C@@H](O)CN2C(=O)c2cccnc2)O1)NC1Cc2ccccc2C1 |
| -32.9[16.7 µM] | CO[C@@H](C(=O)N(C)C[C@H]1OCc2ccccc2-c2ccccc2C(=O)N([C@H](C)CO)C[C@H]1C)c1ccccc1 |
| 4.7[16.7 µM] | CO[C@H]1CN(C)C(=O)c2cc(C#N)ccc2OC[C@H]2O[C@@H](CC[C@H]2OC)CCN(C)C(=O)[C@H]1C |
| 34.1[16.7 µM] | O=C(C[C@@H]1CC[C@H]2[C@@H](COC[C@H](O)CN2CCC(F)(F)F)O1)NCC1CCCCC1 |
| -18.7[16.7 µM] | CCCNC(=O)Nc1ccc2c(c1)C(=O)N(C)C[C@@H](OC)[C@@H](C)CN(C(=O)C1CCCCC1)[C@@H](C)CO2 |
| 35.5[16.7 µM] | COc1cccc(-c2ccc3c(c2)[C@@H]2[C@@H](CCN2C(=O)NC2CCCCC2)[C@H](CO)N3C)c1 |
| 9.7[16.7 µM] | CC(C)NC(=O)Nc1ccc2c(c1)C(=O)N([C@H](C)CO)C[C@@H](C)[C@@H](CN(C)C(=O)NC(C)C)OCCCC[C@H](C)O2 |
| -0.4[16.7 µM] | O=C(C[C@H]1CC[C@@H](NC(=O)Nc2ccc(C(F)(F)F)cc2)[C@@H](CO)O1)NCc1cc(F)cc(F)c1 |
| 58.0*[16.7 µM] | COc1ccc(CNC(=O)N(C)C[C@H]2OCc3ccccc3-c3c(n(C)c4ccccc34)C(=O)N([C@@H](C)CO)C[C@@H]2C)cc1 |
| -9.3[16.7 µM] | COC(=O)C[C@@H]1CC[C@H]2[C@H](COc3ccc(NC(=O)Cc4cccs4)cc3C(=O)N2C)O1 |
| 24.3[16.7 µM] | CO[C@@H]1CN(C)C(=O)c2ccc(NC(=O)C3CC3)cc2OC[C@H](C)N(Cc2cccc(F)c2)C[C@H]1C |
| 23.7 | Clc1ccc(CN2CCN(c3ncc(Cc4ccccc4)cn3)CC2)c(Cl)c1 |
| 35.7[16.7 µM] | C[C@@H]1CN([C@H](C)CO)C(=O)CCCn2cc(nn2)CO[C@@H]1CN(C)S(=O)(=O)c1ccc(Oc2ccccc2)cc1 |
| 27.6[16.7 µM] | CC(C)NC(=O)Nc1ccc2c(c1)C(=O)N([C@@H](C)CO)C[C@@H](C)[C@@H](CN(C)C(=O)NC1CCCCC1)OCCCC[C@@H](C)O2 |
| 58.8* | COC(=O)C1=C(C)N(Cc2ccc(F)cc2)C(=S)NC1c1ccc(Cl)cc1 (stereo unspecified) |
| -18.1 | C#CCNC(=O)C[C@H]1C[C@@]2(C(=O)OC)C(=C[C@H](COCc3ccccc3)O[C@@H]2C)N(Cc2ccc3c(c2)OCO3)C1=O |
| 5.2[16.7 µM] | CO[C@@H]1CC[C@H]2CCN(C)C(=O)C[C@@H](c3ccccc3)CN(C)C(=O)c3cccc(C#N)c3OC[C@H]1O2 |
| 10.6[16.7 µM] | CS(=O)(=O)N1[C@@H]2c3cccc(=O)n3C[C@H]1[C@H](CO)[C@H]2C(=O)NCc1ccccc1 |
| -4.2[16.7 µM] | COc1ccc2c3c([nH]c2c1)[C@@H](CO)N(C(=O)c1cccnc1)CC31CN(Cc2cccnc2)C1 |
| -10.4 | CC(NC(=O)C=Cc1ccco1)C(=O)NC(Cc1ccccc1)C(N)=O (stereo unspecified) |
| -17.8[16.7 µM] | C[C@@H]1CN([C@@H](C)CO)C(=O)c2cc(NC(=O)Nc3ccc(F)cc3)ccc2O[C@@H](C)CCCCO[C@@H]1CN(C)C |
| 2.7[16.7 µM] | CO[C@@H]1CN(C)C(=O)c2cc(NC(C)=O)ccc2OC[C@H](C)NC[C@@H]1C |
| 12.8[16.7 µM] | C[C@H]1CN([C@@H](C)CO)S(=O)(=O)c2ccc(-c3cccnc3)cc2O[C@@H]1CN(C)CC1CCOCC1 |
| -34.2[16.7 µM] | COc1ccc2c3c([nH]c2c1)[C@H](CO)N(C(=O)Nc1ccc(F)cc1)CC31CN(S(=O)(=O)c2cn(C)cn2)C1 |

| Env fusion inh | canonical_smiles |
| --- | --- |
| -2.6[16.7 µM] | COCCNC(=O)C[C@H]1CC[C@H]2[C@@H](COC[C@@H](O)CN2S(=O)(=O)c2ccccc2F)O1 |
| 11.0[16.7 µM] | CO[C@@H]1CN(C)C(=O)c2ccc(NS(=O)(=O)CC(F)(F)F)cc2OC[C@H](C)NC[C@@H]1C |
| -33.4 | COC(=O)c1cc2c(c3c4ccccc4n(S(=O)(=O)c4ccccc4)c13)C(=O)N(Cc1ccc(N(C)C)cc1)C2 |
| 15.9[16.7 µM] | CO[C@@H]1CN(C)C(=O)c2cc(NC(=O)NC(C)C)ccc2OC[C@@H](C)N(CCC(F)(F)F)C[C@@H]1C |
| -13.8[16.7 µM] | COCC(=O)Nc1ccc2c(c1)C(=O)N(C)C[C@@H](OC)[C@H](C)CN[C@H](C)CO2 |
| 10.5[16.7 µM] | CNC[C@H]1OCCCC[C@H](C)Oc2ccc(NC(=O)NC(C)C)cc2C(=O)N([C@@H](C)CO)C[C@H]1C |
| 2.6 | CN(C(=O)[C@@H](Cc1ccccc1)NC(=O)[C@H]1O[C@@H](n2cnc3c(=O)[nH]c(N)nc32)[C@H](O)[C@@H]1O)C1CCCCC1 |
| 0.6[16.7 µM] | COCC(=O)N1C[C@@H](C)[C@H](OC)CN(C)C(=O)c2ccc(NS(C)(=O)=O)cc2OC[C@H]1C |
| -20.0[16.7 µM] | CN1C(=O)c2cc(NC(=O)c3ccccc3Cl)ccc2OC[C@H]2O[C@@H](CC(=O)NCC(F)(F)F)CC[C@H]21 |
| 4.7 | C=CCNC(=S)N(C)[C@H]1C[C@H]2c3cc(-c4ccccc4C)ccc3CCN2C[C@H]1[C@H](C)O |
| -1.7[16.7 µM] | C[C@H](CO)N1C[C@H](C)[C@@H](CN(C)Cc2cccc(F)c2)Oc2ncc(C#CC(C)(C)O)cc2C1=O |
| 8.3 | CN(Cc1ccco1)C(=O)[C@@H](Cc1ccccc1)NC(=O)[C@H]1O[C@@H](n2ccc(=O)[nH]c2=O)[C@H](O)[C@@H]1O |
| 7.7[16.7 µM] | CCNC(=O)Nc1ccc2c(c1)C(=O)N(C)[C@H]1CC[C@H](CC(=O)Nc3ccccc3OC)O[C@@H]1CO2 |
| 8.9[16.7 µM] | COc1ccc(CN(C)C[C@H]2OCCCC[C@H](C)Oc3ccc(NC(=O)C4CCCCC4)cc3C(=O)N([C@H](C)CO)C[C@H]2C)cc1 |
| -1.2[16.7 µM] | CO[C@@H]1CN(C)C(=O)c2ccc(NC(=O)c3nc4ccccc4s3)cc2OC[C@H](C)N(Cc2cccnc2)C[C@H]1C |
| -5.6 | CC(C)c1[nH]nc2c1C(c1ccccc1)N(Cc1ccccc1)C2=O (stereo unspecified) |

Only part of the results is shown; count on the stated rates, not on these rows.
